gsp antagonist = antagonizes gsp, the McCune-Albright syndrome mutation. 340,000 tested, 0.4% active. gsp-mutant cells, cAMP HTRF, 30 min; control for the full effect not named in the record. Potency, µM (doses to about 76.9 µM), inactives show top-dose activity change, negative = inhibition, hits mostly inhibitors; active = falling curve of any shape with a large fitted effect; inconclusive = falling curve, mostly with a smaller effect; inactive = flat or rising curve; cell line not stated here;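 further: intracellular cAMP measured with PDE inhibitor Ro 20-1724 present during compound exposure; potency means the concentration at half of the fitted maximal effect; on the % scale 0 is the no-effect control and ±100 the full control effect; nearly all actives have a fitted effect of over 65% in size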
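G418-selected cells were plated in DMEM/10% FBS for 16-24 h at 37C, then treated with compounds plus the PDE inhibitor […] (300 uM solution added) for 30 min at 37C. Intracellular cAMP was measured by HTRF after 30 min lysis at room temperature.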
gsp ag = activates gsp, the McCune-Albright syndrome mutation; Potency, µM (titrated, usually from 76.9 µM), without a hit: at the highest dose activation (cAMP increase), most hits filed as activators; gsp mutant cells, cAMP HTRF, 30 min; control for the full effect not named in the record; 340,000 tested, 0.13% active; active = well fitted activation curve with a large enough effect; inconclusive = small, poorly fitted or top-dose-only effect, or another doubt; inactive = no such curve, though single readings can be large or run the other way; cell line not stated here;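 further: phosphodiesterase inhibitor Ro 20-1724 added with compounds to block cAMP breakdown; potency means the concentration at half of the fitted maximal effect; nearly all actives have a fitted effect of over 60% in size; about a fifth of the inactives were tested at one dose only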
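Cells in DMEM/10% FBS with G418 were pretreated with compounds in DMSO plus […] (300 uM stock) for 30 min at 37C. cAMP was measured by HTRF (cAMP-d2 plus anti-cAMP antibody-K) after 30 min at room temperature.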
CtBP-E1A blk = blocks the CtBP interaction with E1A | activity change, % (test concentration not listed) | AID 651724 | AlphaScreen GST-E1A/His-CtBP binding, 1536-well; stronger effect = lower value; control for the full effect not named in the record | 340,000 tested, 0.49% active; in the data active means activity change below about -65%; inconclusive means about -30% to -65%; inactive means above about -30%; further: on the % scale 0 is the no-effect control and ±100 the full control effect; compound concentration not given in the record
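GST-E1A and His-tagged CtBP (125 nM each as 5X stock) were preincubated with pin-transferred compound for 2 h at 37 °C in the dark, then glutathione donor and nickel acceptor beads were added for 1 h before AlphaScreen reading.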
Six1-Eya2 blk = blocks human Six1 binding to Eya2 | Q15475+O00167 | AlphaScreen GST-Six1/His-Eya2 binding, biochemical; stronger effect = lower value; control for the full effect not named in the record | activity change, % (concentration not given with the values) | 360,000 tested, 0.56% active; in the data active = activity change below about -65%; inconclusive = about -30% to -65%; inactive = above about -30%; further: on the % scale 0 is the no-effect control and ±100 the full control effect
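AlphaScreen luminescence read after one hour at 37 °C in darkness. Pin-transferred compounds met GST-Six1 and His-Eya2 protein (5X stock 250 nM/500 nM) plus glutathione donor and Ni-chelate acceptor beads (5X, 50 ug/mL).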
D2 agonist = human D2 receptor agonism in beta-arrestin assay. DiscoveRx PathHunter D2 beta-arrestin, luminescence, 90 min; 100% = 57 uM dopamine signal. P14416. activation, % (no concentration beside the values). 360,000 tested, 0.084% active. AID 624465; in the data active = activation above about 40%; inconclusive = about 15% to 40%; inactive = below about 15%; further: compound concentration not given in the record; the text of the record calls up to 30% inactive
Target sequence (P14416 whole entry, looked up): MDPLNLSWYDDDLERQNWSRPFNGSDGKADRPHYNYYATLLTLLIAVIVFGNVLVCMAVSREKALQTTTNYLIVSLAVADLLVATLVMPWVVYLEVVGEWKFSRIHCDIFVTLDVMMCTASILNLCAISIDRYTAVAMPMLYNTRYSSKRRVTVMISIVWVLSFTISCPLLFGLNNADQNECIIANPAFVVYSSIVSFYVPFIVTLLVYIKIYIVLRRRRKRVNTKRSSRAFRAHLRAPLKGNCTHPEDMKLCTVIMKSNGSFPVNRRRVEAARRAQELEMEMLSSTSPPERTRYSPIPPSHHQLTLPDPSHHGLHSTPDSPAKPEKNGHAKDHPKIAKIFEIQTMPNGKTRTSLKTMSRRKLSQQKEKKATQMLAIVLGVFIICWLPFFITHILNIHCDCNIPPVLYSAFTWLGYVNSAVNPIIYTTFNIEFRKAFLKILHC
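Agonist mode: compounds alone added to overnight-plated D2 PathHunter cells for 90 min at 37 C, with 57 uM final dopamine (EC100) defining full response. Beta-arrestin recruitment detected by chemiluminescent reagent, read after 1 h at ambient temperature.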
D2 potentiator = positive allosteric modulators of human D2 dopamine receptor; 360,000 tested, 0.23% active; P14416; potentiation, % (concentration not given with the values); DiscoveRx D2 beta-arrestin cells, luminescence, 90 min; 100% = 57 uM dopamine signal; AID 624464; active = potentiation of 50% or more; inconclusive = 30% to 50%; inactive = 30% or less;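 further: compound concentration not given in the record; tested on top of an EC20 dose of dopamine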
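PathHunter beta-arrestin assay in DiscoveRx D2 cells. Compounds were added with an EC20 of dopamine (50 nM final) for 90 min at 37 deg C. Luminescence was read 1 h after detection reagent, with 57 uM dopamine as the EC100 control.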
Starred values were filed as active, the others as inactive; ? = inconclusive; . = no result given; [ ] = another dose, or the depositor's remark.

Each structure is followed by: gsp ag, CtBP-E1A blk, D2 agonist, gsp antagonist, Six1-Eya2 blk, D2 potentiator
O=C(c1cc2ccccc2o1)N1CCN(c2ccccc2Cl)CC1
    -9.4%, 3.4, -0.3, -2.0%, 13.6, -8.3
c1ccc(-c2ncnc3cc4n(c23)CCC4)cc1
    0.7%, 5.8, -2.6, 17.4%, 5.4, 0.0
Cn1c[n+](C)cc1-c1ccc(/C(N)=N/O)cc1
    -0.6%[15.4 µM], -3.9, -4.6, 8.5%, 9.5, -4.9
CC(=O)Nc1nnc(SCc2cc(=O)c(OC(=O)c3ccccc3)co2)s1
    13.8%[15.4 µM], 11.4, 2.1, -1.8%, -2.6, 1.0
COc1ccc(S(N)(=O)=O)cc1C(=O)NCCCN1CCN(c2ccc(C)cc2)CC1
    -8.3%, -0.2, -2.1, 6.8%, -7.1, -46.2
Cc1ccc(S(=O)(=O)NCCC(=O)Nc2cccc(S(N)(=O)=O)c2)cc1C
    7.8%[15.4 µM], 0.1, -2.9, -1.0%, 6.0, -1.2
Brc1cccc(-c2nnc3n2CCCCC3)c1
    5.2%, -2.6, 1.7, 12.9%, 1.5, -4.3
CC(=O)N(c1cccc(Cl)c1)c1nc(C)cc(C)c1C#N
    0.3%, ., 2.5, 10.7%, -4.7, 4.9
Cc1ccc2c(CN3CCC(C)CC3)cc(=O)oc2c1
    -2.9%, 6.7, 2.4, -9.7%, 6.1, -16.4
Cc1cccc(N2CCN(C(=O)CN3C(=O)NC(C)(C4CC4)C3=O)CC2)c1C (centres undefined)
    ?, -4.7, 0.5, 1.8%, 4.8, 0.1
O=C(NC1CCS(=O)(=O)C1)/C(=C\c1ccco1)NC(=O)c1ccccc1 (centres undefined)
    ?, 1.9, -2.3, 6.1%, -6.6, -12.5
COc1ccc(CN2C(=NC(=O)CCC3CCCC3)SC3CS(=O)(=O)CC32)cc1 (centres undefined)
    28.3%, ., -0.4, -0.6%, 4.1, -1.8
O=C(COC(=O)c1ccc(O)cc1)c1ccc2c(c1)OCCO2
    -51.3%[inhibitor], -7.2, -5.1, -7.6%, -2.3, -4.2
O=C(CCn1c(=O)sc2ccccc21)Nc1nc2ccccc2s1
    ?, 0.1, -5.1, ?, -18.0, -1.8
CCc1ccc(NC(=O)c2ccc(-n3cncn3)c([N+](=O)[O-])c2)cc1
    8.9%, 2.1, -2.9, 50.1µM*, -6.0, -6.9
COCC1CCN(C(=O)c2cc(COc3ccc(C)c(C)c3)on2)C1 (centres undefined)
    -0.2%[15.4 µM], 5.3, -5.2, 8.2%, 2.1, -19.8
Cc1cc(OCC(=O)NC2CCCCC2)ccc1Cl
    ?, 14.4, 0.5, 1.1%, -3.2, -10.4
O=C(OCC(=O)N1CCN(Cc2ccccc2)CC1)c1cc(Cl)ccc1[N+](=O)[O-]
    -18.7%, -2.7, 1.2, -10.2%, -7.2, -21.1
Cc1cc(C)n(-c2ccc(C(=O)Nc3ccc4c(c3)OCO4)cc2)n1
    19.8%, -1.4, -0.7, -8.1%, -7.2, -8.0
CCOc1cc(CN2CCN(CCc3ccccc3)C(CCO)C2)ccc1OC (centres undefined)
    0.9%[15.4 µM], 0.6, -4.9, 4.0%, 0.1, -38.3
O=C(Nc1cccc(C(F)(F)F)c1)c1sc(Cl)nc1C(F)(F)F
    -4.7%, -6.3, -2.6, -8.1%, 9.0, -2.8
COc1ccc(S(=O)(=O)N2CCN(CC(=O)Nc3cccc(F)c3)CC2)cc1
    0.4%, 6.8, -0.6, -2.0%, 4.9, 0.0
O=C(NCCc1ccccc1Cl)c1cc(COc2ccc(F)cc2F)on1
    ?, 19.5, 5.2, -9.3%, 9.9, -10.0
O=C(O)c1c(F)c(F)cc2ccccc12
    -8.7%[15.4 µM], 3.0, -0.4, 2.5%, 4.5, 2.0
COc1ccc(N(C)C(=O)c2ccc(NC(=O)CCS(=O)(=O)c3cccs3)cc2)cc1
    31.9%[15.4 µM], 28.7, 1.7, -28.8%, 5.8, -1.9
CCC(=O)N1c2ccc(S(=O)(=O)CCC(=O)N3CCN(c4ccccc4F)CC3)cc2CC1C (centres undefined)
    -36.6%[inhibitor], -2.0, -2.5, -13.9%, -3.3, -8.2
O=C(Nc1cccc(Cl)c1)Nc1ccon1
    5.0%, 4.4, -5.7, 8.5%, -0.4, -11.6
NC(c1ccccc1)c1csc(Nc2ccc(C(F)(F)F)cn2)n1 (centres undefined)
    ., -10.7, -1.1, ., -14.3, -4.6
CC(=O)Nc1ccc(NC(=O)c2c(C)noc2C)cc1
    -15.9%, -4.8, 0.4, 13.9%, -4.3, -5.1
COc1cc(C(=O)OCc2csc(CC(=O)Nc3cc(C)ccc3C)n2)ccc1OC(F)F
    ?, 0.3, 9.1, -8.2%, -2.1, 7.3
C/C(N)=C(/C#N)C(=O)COC(=O)CSc1ccc2ccccc2c1
    -27.5%, -6.4, -2.3, -6.4%, -4.9, -5.0
Cc1ccccc1S(=O)(=O)/N=C(/Nc1c(C)n(C)n(-c2ccccc2)c1=O)c1ccccc1
    0.3%[15.4 µM], 2.6, -2.5, 10.9%, -5.7, -11.5
CCOC(=O)c1ccc(S(=O)(=O)N2CCC(C(=O)NCc3ccccc3OC)CC2)cc1
    5.9%, -16.7, -1.5, -11.6%, 0.9, -0.7
C/C(=N\N=C(N)N)c1ccc(Cl)c(Cl)c1
    17.8%[15.4 µM], 18.1, -0.3, -27.4%, 6.5, -5.2
Cc1ccc(-n2cc(CN3CCC(CO)(Cc4cccc(C(F)(F)F)c4)CC3)cn2)cc1
    14.8%[15.4 µM], -14.2, -2.9, -2.1%, 2.2, -26.0
O=C1CN(C(=O)COc2ccccc2Cl)c2ccccc2N1
    -1.5%, -1.2, -3.6, 13.1%, -0.9, -3.2
Cc1nn(C)c(=S)[nH]c1=S
    8.9%, -5.0, -2.5, 4.7%, -0.1, -9.2
CCCNC(=O)c1onc(CSc2ccc(Cl)cc2)c1C(=O)NCCC(C)C
    ., 27.9, -3.8, -9.4%, 25.2, -0.6
CCC(=O)N(CC(=O)Nc1sc(C)c(C)c1C(N)=O)C1CCCC1
    0.1%[15.4 µM], -8.2, -11.5, ., 6.2, -29.9
CSc1nnc(-c2cnccn2)n1Cc1ccccc1
    -0.9%, 9.4, 0.2, 6.6%, 4.2, -2.3
O=C(CCN1C(=O)c2ccccc2S1(=O)=O)Nc1nc2c(s1)CCCC2
    -36.2%[inhibitor], 1.2, -1.0, -12.9%, -1.8, 2.8
CC(C)=CC(=O)OCc1cc([N+](=O)[O-])cc2c1OCOC2
    11.6%[15.4 µM], -2.5, -6.4, -46.2%, 18.1, -22.0
CCn1cc(C(=O)N2CCN(c3ccccc3OC)CC2)c2cc(OC)c(OC)cc2c1=O
    3.2%, ., -2.1, 6.4%, 2.0, -12.1
COc1cccc(C(C(=O)NC2CCCC2)N(C(=O)c2csnn2)C2CC2)c1 (centres undefined)
    16.5%[15.4 µM], 16.5, 2.7, ., 4.0, -4.8
O=C(CCCCN1CCCCC1)c1ccc2c(c1)Cc1ccccc1-2
    ?, -1.4, 0.5, 3.4%, -2.8, -15.4

2 entries from above, as a markdown table.
| Structure | gsp ag | CtBP-E1A blk | D2 agonist | gsp antagonist | Six1-Eya2 blk | D2 potentiator |
| --- | --- | --- | --- | --- | --- | --- |
| CC(C)=CC(=O)OCc1cc([N+](=O)[O-])cc2c1OCOC2 | 11.6%[15.4 µM] | -2.5 | -6.4 | -46.2% | 18.1 | -22.0 |
| Cc1nn(C)c(=S)[nH]c1=S | 8.9% | -5.0 | -2.5 | 4.7% | -0.1 | -9.2 |

(listing goes on)
Each structure is followed by: gsp ag, CtBP-E1A blk, D2 agonist, gsp antagonist, Six1-Eya2 blk, D2 potentiator
O=C(CN(Cc1ccco1)C(=O)c1cc(=O)[nH]c2ccccc12)Nc1ccccc1C(F)(F)F
    -3.8%, -0.2, -2.5, 10.1%, 4.7, -7.7
COCOc1cccc(CN2CCC2(C)C(=O)Nc2ccc(C)cc2)c1 (centres undefined)
    ., 35.8, -8.7, ., 0.0, -9.1
CCn1ncc(CN2CCCC(CNC(=O)c3ccc(F)cc3)C2)c1C (centres undefined)
    6.5%, 9.4, -1.6, 2.6%, 9.7, -8.0
O=c1c2ccccc2sc2ccc(NCCCN3CCOCC3)cc12
    ., -17.4, 3.7, -7.2%, -9.3, -9.5
CCS(=O)(=O)N1CCC(C(=O)NCCCN2CCN(c3ccccc3F)CC2)CC1
    3.9%, 8.0, ?, 5.9%, 1.9, 17.7
COc1ccccc1C(c1nnnn1C(C)(C)C)N1CCCc2ccccc21 (centres undefined)
    -13.0%, -23.5, -2.0, 9.1%, 3.0, 8.8
COc1ccc(-c2sc3cc4c(cc3c2C#CC2(O)CCCCC2)OCO4)cc1
    ., 4.2, -1.1, 7.4%, 2.5, -16.2
CS(=O)(=O)c1ccc(NC(=O)C2CCCN(C(=O)c3ccc(Cl)cc3)C2)cc1 (centres undefined)
    8.1%, ., -1.0, -5.7%, 9.3, -10.9
O=C(Cn1cc(C(F)(F)F)cc(Cl)c1=O)NCc1ccccc1
    10.4%[15.4 µM], 8.9, 0.2, 0.8%, -0.9, -5.2
CC(C)(C)NC(=O)C(c1ccc(O)cc1)N(C(=O)Cn1nnc(-c2ccc(F)cc2)n1)c1ccccc1F (centres undefined)
    ?, 3.0, -1.9, -29.2%, -13.7, -15.2
CCOC(=O)c1c(C)nc2c(c1-c1cc(OC)ccc1OC)C(=O)c1ccccc1-2
    22.4%, -2.5, 1.0, -14.4%, -2.1, -14.0
O=C(Nc1cc(Cl)cc(Cl)c1)c1ccc(Cn2c(=O)[nH]c3ccsc3c2=O)cc1
    ?, 5.8, -2.5, 14.3%, -2.5, 2.0
CCOc1ccccc1CN1C(=O)c2ccccc2C1C(=O)NC(C)CC (centres undefined)
    -2.9%, 1.9, -3.1, 6.0%, -3.0, -5.1
C/C(=N/n1cnnc1)c1cccnc1
    5.0%, -10.7, 0.5, 6.5%, -1.3, -9.1
CCN1CCN(C(=O)c2cc3cc(Cl)ccc3[nH]2)CC1
    -36.6%[inhibitor][15.4 µM], 3.0, 0.5, 15.2%, 3.4, -12.2
C[C@@H]1CN([C@H](C)CO)C(=O)CCCn2cc(nn2)CO[C@H]1CN(C)C(=O)Nc1ccccc1C(F)(F)F
    ?, -16.7, -3.6, ., 10.9, 2.9
CCOC(=O)c1c(-c2ccccc2)csc1NC(=O)CSc1nc(C)cc(C)n1
    7.1%, 15.7, -0.9, 0.4%, 7.9, 16.6
O=C(Oc1ccc(OC(=O)c2ccco2)c(S(=O)(=O)c2ccc(Cl)cc2)c1)c1ccco1
    -3.9%, -2.9, 7.8, -3.0%, -8.6, 15.3
CCOc1cc(/C=N/N=C/c2ccc(O)c(OCC)c2)ccc1O
    -2.9%, -8.0, -6.0, -2.2%, -8.5, 2.4
COc1ccc([N+](=O)[O-])cc1N(CC(O)CN(C)C)S(=O)(=O)c1ccc(C)cc1 (centres undefined)
    15.6%, ., -0.2, 5.5%, ?, -16.8

Screens: PubChem, National Center for Advancing Translational Sciences (NCATS)
